Screening data deposited in PubChem BioAssay by National Center for Advancing Translational Sciences (NCATS).
D2 PAM: positive allosteric modulators of human D2 dopamine receptor | DiscoveRx D2 beta-arrestin cells, luminescence, 90 min; 100% = 57 uM dopamine signal | 360,000 tested, 0.23% active | potentiation, % (test concentration not listed) | P14416; active = potentiation of 50% or more; inconclusive = 30% to 50%; inactive = 30% or less;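 note: compound concentration not given in the record; tested on top of an EC20 dose of dopamine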
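PathHunter D2 cells, attached overnight at 37 deg C, received compound in DMSO plus dopamine at EC20 (50 nM final) for 90 min at 37 deg C. Beta-arrestin recruitment was read as luminescence after 1 h with detection reagent at ambient temperature.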
CtBP-E1A blk: blocks the CtBP interaction with E1A | AlphaScreen GST-E1A/His-CtBP binding, 1536-well; active compounds read low; control for the full effect not named in the record | activity change, % (no concentration beside the values) | 340,000 tested, 0.49% active | AID 651724; in the data active means activity change below about -65%; inconclusive means about -30% to -65%; inactive means above about -30%; note: % is set by controls: 0 for no effect and ±100 for the full control effect
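Protein mix (5X: 125 nM each GST-E1A, His-CtBP) was incubated with pinned compound 2 h at 37 deg C in dark, in 50 mM Tris pH 8.0 buffer with 300 mM NaCl. Glutathione donor and nickel acceptor beads followed; AlphaScreen signal read after 1 h.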
PINK1 expr mod: changes PINK1 expression; PINK1 immunofluorescence, high-content cytometry, 24 h; Potency, µM (series often up to 76.6 µM), for inactives: at the highest dose activation (PINK1 increase), actives largely listed as activators; 410,000 tested, 0.2% active; active = well fitted activation curve with a large enough effect; inconclusive = small, poorly fitted or top-dose-only effect; inactive = flat fitted curve, though single readings scatter; cell line not stated here;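 note: potency is the fitted concentration of half-maximal effect; % of control where 0% means no effect; nearly all actives have a fitted effect of over 65% in size; a mitochondrial uncoupler was the plate control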
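Cells are seeded, rested 12 hours, then given compound at five concentrations or DMSO for 24 hours. After fixation, blocking and antibody staining, PINK1 amount and mitochondrial localization are scored; CCCP serves as control.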
Six1-Eya2 blk: inhibitors of human Six1/Eya2 interaction; AlphaScreen GST-Six1/His-Eya2 binding, biochemical; active compounds read low; control for the full effect not named in the record; activity change, % (test concentration not listed); 360,000 tested, 0.56% active; AID 651725; in the data active = activity change below about -65%; inconclusive = about -30% to -65%; inactive = above about -30%; note: % is set by controls: 0 for no effect and ±100 for the full control effect
Target sequence (O00167 whole entry, looked up): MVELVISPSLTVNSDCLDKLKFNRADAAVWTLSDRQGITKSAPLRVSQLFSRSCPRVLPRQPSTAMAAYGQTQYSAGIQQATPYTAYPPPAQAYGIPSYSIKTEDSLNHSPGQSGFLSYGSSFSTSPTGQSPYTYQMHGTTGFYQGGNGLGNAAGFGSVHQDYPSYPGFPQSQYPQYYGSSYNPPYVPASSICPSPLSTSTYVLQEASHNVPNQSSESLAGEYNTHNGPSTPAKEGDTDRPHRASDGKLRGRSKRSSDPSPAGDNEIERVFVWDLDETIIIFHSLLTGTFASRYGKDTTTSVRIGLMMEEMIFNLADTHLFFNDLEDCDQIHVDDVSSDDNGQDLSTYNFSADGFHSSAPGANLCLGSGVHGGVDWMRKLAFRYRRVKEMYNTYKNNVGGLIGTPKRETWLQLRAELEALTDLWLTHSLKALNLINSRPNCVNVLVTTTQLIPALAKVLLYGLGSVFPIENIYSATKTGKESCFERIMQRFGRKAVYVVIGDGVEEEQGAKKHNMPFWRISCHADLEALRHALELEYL
Target sequence (Q15475 whole entry, looked up): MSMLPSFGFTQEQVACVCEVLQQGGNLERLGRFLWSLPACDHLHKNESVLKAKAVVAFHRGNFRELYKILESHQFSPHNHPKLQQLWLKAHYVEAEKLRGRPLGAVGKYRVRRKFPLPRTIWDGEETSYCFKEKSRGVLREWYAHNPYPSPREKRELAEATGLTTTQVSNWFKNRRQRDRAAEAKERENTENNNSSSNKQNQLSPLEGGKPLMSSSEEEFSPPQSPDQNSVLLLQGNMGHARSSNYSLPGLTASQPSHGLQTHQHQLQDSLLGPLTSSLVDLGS
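Homogeneous AlphaScreen proximity assay pairing GST-Six1 with His-tagged Eya2 (added as 5X mix: 250 nM and 500 nM) in 50 mM Tris pH 8.0, 300 mM NaCl, 1 mM TCEP. Glutathione donor and nickel acceptor beads; 1 h, 37 °C, dark.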
D2 agonist: agonists of human D2 dopamine receptor (beta-arrestin) | P14416 | DiscoveRx PathHunter D2 beta-arrestin, luminescence, 90 min; 100% = 57 uM dopamine signal | activation, % (no concentration beside the values) | 360,000 tested, 0.084% active | AID 624465; in the data active = activation above about 40%; inconclusive = about 15% to 40%; inactive = below about 15%; note: compound concentration not given in the record; the text of the record calls up to 30% inactive
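Agonist mode: compounds alone added to overnight-plated D2 PathHunter cells for 90 min at 37 C, with 57 uM final dopamine (EC100) defining full response. Beta-arrestin recruitment detected by chemiluminescent reagent, read after 1 h at ambient temperature.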
TRPML1 agonist: human mucolipin-1 channel agonism. 410,000 tested, 0.12% active. Q9GZU1. activation, % (test concentration not listed). TRPML1-expressing cells, Ca2+ dye fluorescence, FDSS; host cell line not named in the record; reference of the full effect not given here; in the data active = activation above about 50%; inconclusive = about 30% to 50%; inactive = below about 30%; note: 0% is about no effect; the text of the record puts the active cut at 80%
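Calcium fluorescence on an FDSS kinetic reader gave the read-out. Tet-induced TRPML1-DL cells were plated overnight, dye-loaded (Ca8 with quencher, 45-90 min, room temperature, dark), then read 110 s after compound addition, and again 110 s after 4uM final 54-4 (EC80).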
* = called active by the depositor; [ ] = another dose, or the depositor's remark.

How did CC(C)=C1C2CCC1C1C(=O)N(c3ccc4c(c3)OCO4)C(=O)C21 (stereo not given) do in these assays?
D2 PAM: -5.2; CtBP-E1A blk: -1.1; PINK1 expr mod: -0.1%; Six1-Eya2 blk: -1.6; D2 agonist: 2.6; TRPML1 agonist: 0.1

What do the screens show for `Nc1cc(Cl)ccc1N1CCCCCC1`?
D2 PAM: -2.8; CtBP-E1A blk: 0.2; PINK1 expr mod: 0.4%; Six1-Eya2 blk: 1.3; D2 agonist: -0.8; TRPML1 agonist: 0.1

Results for CS(=O)(=O)c1ccc(Cl)c(NC(=O)COC(=O)c2cccc(S(=O)(=O)N3CCCC3)c2)c1 ?
D2 PAM: -67.5; CtBP-E1A blk: -0.8; PINK1 expr mod: -2.3%; Six1-Eya2 blk: 6.5; D2 agonist: 0.8; TRPML1 agonist: 1.8

Results for Cc1c(NC(=O)CSc2nc3ccccc3c(=O)n2C(C)C)c(=O)n(-c2ccccc2)n1C ?
D2 PAM: 2.0; CtBP-E1A blk: 0.0; PINK1 expr mod: -1.0%; Six1-Eya2 blk: 14.1; D2 agonist: 0.1; TRPML1 agonist: 0.5

How did COc1ccccc1NC(=O)CN1CCN(CC(=O)Nc2ccc(OCc3ccccc3)cc2)CC1 do in these assays?
D2 PAM: -0.5; CtBP-E1A blk: -7.9; PINK1 expr mod: 3.3%; Six1-Eya2 blk: -3.7; D2 agonist: 3.8; TRPML1 agonist: -0.6

How did c1ccc(CNc2ccc3c(c2)ncn3C2CCCCC2)nc1 do in these assays?
D2 PAM: -4.8; CtBP-E1A blk: -15.2; PINK1 expr mod: -0.2%[38.3 µM]; Six1-Eya2 blk: -19.9; D2 agonist: 1.7; TRPML1 agonist: 0.3

What do the screens show for `CCNC(=S)NS(=O)(=O)c1ccc(CC)cc1`?
D2 PAM: -33.4; CtBP-E1A blk: -7.2; PINK1 expr mod: -0.1%[38.3 µM]; Six1-Eya2 blk: 0.5; D2 agonist: -7.7; TRPML1 agonist: -0.2

Results for O=[N+]([O-])c1ccccc1Oc1ccc(C(F)(F)F)cn1 ?
D2 PAM: 4.6; CtBP-E1A blk: 0.0; PINK1 expr mod: 0.6%; Six1-Eya2 blk: -1.5; D2 agonist: 9.3; TRPML1 agonist: -0.4

What do the screens show for `COc1ccc(CCC(=O)Nc2c(C)n(C)n(-c3ccccc3)c2=O)cc1`?
D2 PAM: -43.4; PINK1 expr mod: 0.1%; Six1-Eya2 blk: 0.5; D2 agonist: 2.5; TRPML1 agonist: 3.8

What do the screens show for `CCOc1ccc(/C=C2\SC(=S)N(CC(=O)Nc3ccccn3)C2=O)cc1`?
D2 PAM: -6.1; CtBP-E1A blk: 2.9; PINK1 expr mod: 13.3%; Six1-Eya2 blk: 1.2; D2 agonist: -5.3; TRPML1 agonist: -0.2

Results for O=C(O)c1cscc1-c1cccc2ccccc12 ?
D2 PAM: -0.2; CtBP-E1A blk: 0.0; PINK1 expr mod: 0.8%; Six1-Eya2 blk: 7.9; D2 agonist: -3.0; TRPML1 agonist: -0.2

What do the screens show for `O=C(CN1C(=O)C2CC=CCC2C1=O)Nc1nc(-c2ccc(F)c(F)c2)cs1` (stereo not given)?
D2 PAM: 20.3; PINK1 expr mod: 3.0%; Six1-Eya2 blk: 0.4; D2 agonist: 7.6; TRPML1 agonist: -1.3

Overlap with the part before: 2 entries, followed by the next part.
Results for O=C(O)c1cscc1-c1cccc2ccccc12 ?
D2 PAM: -0.2; CtBP-E1A blk: 0.0; PINK1 expr mod: 0.8%; Six1-Eya2 blk: 7.9; D2 agonist: -3.0; TRPML1 agonist: -0.2

What do the screens show for `O=C(CN1C(=O)C2CC=CCC2C1=O)Nc1nc(-c2ccc(F)c(F)c2)cs1` (stereo not given)?
D2 PAM: 20.3; PINK1 expr mod: 3.0%; Six1-Eya2 blk: 0.4; D2 agonist: 7.6; TRPML1 agonist: -1.3

How did CC(=O)OCC(=O)C1(O)CCC2C3CC(F)C4=CC(=O)CCC4(C)C3C(=O)CC21C (stereo not given) do in these assays?
D2 PAM: -2.5; CtBP-E1A blk: 2.4; PINK1 expr mod: 4.9%; Six1-Eya2 blk: 8.9; D2 agonist: -3.6; TRPML1 agonist: -0.2

What do the screens show for `CC(=O)N1CCN(S(=O)(=O)c2cccc(C(=O)NNC(=O)Cn3nc(C)cc3C)c2)CC1`?
D2 PAM: -5.6; PINK1 expr mod: 1.8%; Six1-Eya2 blk: -4.6; D2 agonist: -1.4; TRPML1 agonist: -1.2

How did CCOc1ccc(S(=O)(=O)Nc2ccccc2C(=O)N2CCCC2)cc1 do in these assays?
D2 PAM: -6.5; CtBP-E1A blk: 6.6; PINK1 expr mod: -1.1%; Six1-Eya2 blk: 3.8; D2 agonist: -2.5; TRPML1 agonist: -0.4

What do the screens show for `CCOC(=O)c1c(NC(=O)COC(=O)CCNS(=O)(=O)c2ccccc2)sc(C(=O)N(C)C)c1C`?
D2 PAM: 22.3; CtBP-E1A blk: 6.2; PINK1 expr mod: -0.3%; Six1-Eya2 blk: -21.5; D2 agonist: -3.3; TRPML1 agonist: -0.8

Results for CC(=O)Nc1ccc(/C(C)=N/NC(=O)c2ccc(CN3CCOCC3)cc2)cc1 ?
D2 PAM: -3.8; CtBP-E1A blk: -0.1; PINK1 expr mod: 0.6%; Six1-Eya2 blk: 2.0; D2 agonist: -2.8; TRPML1 agonist: -0.4

What do the screens show for `NS(=O)(=O)c1ccc(NC(=O)COC(=O)c2cn(-c3ccccc3)nc2-c2ccc(F)cc2)cc1`?
D2 PAM: -14.3; CtBP-E1A blk: -2.8; PINK1 expr mod: 5.7%; Six1-Eya2 blk: 3.4; D2 agonist: -0.6; TRPML1 agonist: 0.6

Results for O=C(Nn1cnc2ccccc2c1=O)c1ccc([N+](=O)[O-])cc1Cl ?
D2 PAM: -1.0; CtBP-E1A blk: -18.9; PINK1 expr mod: -0.5%; Six1-Eya2 blk: -10.3; D2 agonist: -2.4; TRPML1 agonist: 1.1

How did Cc1cc(/C=C2\SC(=S)NC2=O)cc(C)c1O do in these assays?
D2 PAM: -5.7; PINK1 expr mod: -0.4%; Six1-Eya2 blk: -8.2; D2 agonist: -6.3; TRPML1 agonist: 6.7

What do the screens show for `O=C(CN1CCN(c2ccccc2)CC1)N1CCc2[nH]c3ccccc3c2C1`?
D2 PAM: -26.1; CtBP-E1A blk: -6.8; PINK1 expr mod: -0.3%; Six1-Eya2 blk: -21.8; D2 agonist: 1.6; TRPML1 agonist: 0.1

What do the screens show for `CC(=NCCc1ccccc1)C1=C(O)COC1=O`?
D2 PAM: -7.8; CtBP-E1A blk: 0.1; PINK1 expr mod: -0.1%; Six1-Eya2 blk: 10.3; D2 agonist: -11.3; TRPML1 agonist: 0.6

Results for CCN(CC(=O)Nc1c(F)cccc1F)C(=O)CNC(=O)c1ccc2c(c1)OCO2 ?
D2 PAM: 9.9; CtBP-E1A blk: 9.4; PINK1 expr mod: -1.6%; Six1-Eya2 blk: -3.4; D2 agonist: -1.5; TRPML1 agonist: -0.2

What do the screens show for `C=CCNC(=O)c1ccc(C2SCC(=O)N2Cc2ccccc2)cc1` (stereo not given)?
D2 PAM: -5.0; CtBP-E1A blk: -3.3; PINK1 expr mod: 0.5%; Six1-Eya2 blk: 0.3; D2 agonist: -3.9; TRPML1 agonist: -0.8

What do the screens show for `COC(=O)c1ccc(CN2CCN(CC(C)C)C(CCO)C2)cc1` (stereo not given)?
D2 PAM: -19.9; PINK1 expr mod: 1.6%; Six1-Eya2 blk: -6.7; D2 agonist: -5.2; TRPML1 agonist: -0.4

How did NC(=O)NS(=O)(=O)Oc1ccccc1 do in these assays?
D2 PAM: -5.0; CtBP-E1A blk: 7.8; PINK1 expr mod: -0.5%; Six1-Eya2 blk: 10.0; D2 agonist: -5.8; TRPML1 agonist: -0.1

Results for Cn1cnnc1SCC(=O)Nc1ccccc1F ?
D2 PAM: -5.8; CtBP-E1A blk: 3.8; PINK1 expr mod: 2.3%; Six1-Eya2 blk: 4.2; D2 agonist: -3.8; TRPML1 agonist: -0.2

How did CCN1CCN(C(c2cccs2)C(C)NS(=O)(=O)c2ccc(Br)cc2)CC1 (stereo not given) do in these assays?
D2 PAM: -41.7; CtBP-E1A blk: 0.0; PINK1 expr mod: 2.3%; Six1-Eya2 blk: 19.8; D2 agonist: -2.8; TRPML1 agonist: 1.2

How did CC1CCN(C(=O)CSc2nnc(Cc3cccn3C)n2-c2ccc(F)cc2)CC1 do in these assays?
D2 PAM: 0.6; CtBP-E1A blk: -1.7; PINK1 expr mod: 2.6%; Six1-Eya2 blk: -7.4; D2 agonist: -0.3; TRPML1 agonist: 0.2

How did COC(=O)c1ccc(NC(=O)CCCCCn2nnc3ccccc3c2=O)cc1 do in these assays?
D2 PAM: 4.3; CtBP-E1A blk: -0.6; PINK1 expr mod: -2.9%; Six1-Eya2 blk: 1.2; D2 agonist: 7.4; TRPML1 agonist: 2.9

How did COc1ccc(-n2c(SCC(=O)NCCC(C)C)nc3ccsc3c2=O)cc1 do in these assays?
D2 PAM: -16.1; CtBP-E1A blk: -2.5; PINK1 expr mod: -21.3%[38.3 µM]; Six1-Eya2 blk: -2.0; D2 agonist: -2.3; TRPML1 agonist: -0.3

Results for Nn1c(SCC(=O)Nc2ccc(F)c(F)c2)nnc1C1CCCCC1 ?
D2 PAM: -10.7; CtBP-E1A blk: 2.1; PINK1 expr mod: -1.2%; Six1-Eya2 blk: 1.7; D2 agonist: -1.1; TRPML1 agonist: -0.5

How did CC(=O)Nc1cccc(NC(=O)c2c(-c3c(Cl)cccc3Cl)noc2C)c1 do in these assays?
D2 PAM: 13.5; CtBP-E1A blk: 8.9; Six1-Eya2 blk: -0.3; D2 agonist: 4.4; TRPML1 agonist: -0.1

Results for Cc1nc(Cc2nnc(SCC(=O)N3CCN(c4ccc(F)cc4)CC3)o2)cs1 ?
D2 PAM: -0.3; PINK1 expr mod: 0.1%; Six1-Eya2 blk: -4.3; D2 agonist: -3.4; TRPML1 agonist: -0.5

What do the screens show for `COc1cccc(C(=O)NCC(=O)OCC(=O)Nc2cc(OC)c([N+](=O)[O-])cc2C)c1`?
D2 PAM: -0.7; CtBP-E1A blk: 11.6; PINK1 expr mod: 1.0%; Six1-Eya2 blk: 7.1; D2 agonist: -2.7; TRPML1 agonist: -0.8

Results for CCCCOC(=O)CSC1=C(C#N)C(c2ccccc2OCC)C(C#N)C(=O)N1 (stereo not given) ?
D2 PAM: -11.0; CtBP-E1A blk: -6.3; PINK1 expr mod: 3.2%[38.3 µM]; Six1-Eya2 blk: -15.6; D2 agonist: -4.1; TRPML1 agonist: -0.1

How did O=S(=O)(Cc1ccccc1)N1CCN(Cc2c(F)cccc2Cl)CC1 do in these assays?
D2 PAM: -9.6; CtBP-E1A blk: 15.9; PINK1 expr mod: -0.6%; Six1-Eya2 blk: 4.6; D2 agonist: -3.5; TRPML1 agonist: -0.4

Results for Cc1nc(N)sc1C(=O)NN ?
D2 PAM: -6.4; CtBP-E1A blk: -5.7; PINK1 expr mod: -1.0%; Six1-Eya2 blk: -7.5; D2 agonist: -2.5; TRPML1 agonist: -0.3

How did O=C(CCl)N=c1sccn1Cc1ccc(Cl)cc1Cl do in these assays?
D2 PAM: -0.2; CtBP-E1A blk: 7.9; PINK1 expr mod: -1.6%; Six1-Eya2 blk: -0.1; D2 agonist: 6.6; TRPML1 agonist: -0.3

Rows were taken by chance; any-hit rate near 1.3%.
